PKD1 inh = inhibitors of human PKD1 kinase | inhibition, %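 (about 10 µM by stock and volumes)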 | AID 797 | PKD1 kinase fluorescence polarization assay | Q15139 | 0.056% of 200,000 active;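 active means inhibition of 50% or more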;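 further: controls were vehicle for no effect and a reference inhibitor for full effect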
Target sequence (Q15139 whole entry, looked up): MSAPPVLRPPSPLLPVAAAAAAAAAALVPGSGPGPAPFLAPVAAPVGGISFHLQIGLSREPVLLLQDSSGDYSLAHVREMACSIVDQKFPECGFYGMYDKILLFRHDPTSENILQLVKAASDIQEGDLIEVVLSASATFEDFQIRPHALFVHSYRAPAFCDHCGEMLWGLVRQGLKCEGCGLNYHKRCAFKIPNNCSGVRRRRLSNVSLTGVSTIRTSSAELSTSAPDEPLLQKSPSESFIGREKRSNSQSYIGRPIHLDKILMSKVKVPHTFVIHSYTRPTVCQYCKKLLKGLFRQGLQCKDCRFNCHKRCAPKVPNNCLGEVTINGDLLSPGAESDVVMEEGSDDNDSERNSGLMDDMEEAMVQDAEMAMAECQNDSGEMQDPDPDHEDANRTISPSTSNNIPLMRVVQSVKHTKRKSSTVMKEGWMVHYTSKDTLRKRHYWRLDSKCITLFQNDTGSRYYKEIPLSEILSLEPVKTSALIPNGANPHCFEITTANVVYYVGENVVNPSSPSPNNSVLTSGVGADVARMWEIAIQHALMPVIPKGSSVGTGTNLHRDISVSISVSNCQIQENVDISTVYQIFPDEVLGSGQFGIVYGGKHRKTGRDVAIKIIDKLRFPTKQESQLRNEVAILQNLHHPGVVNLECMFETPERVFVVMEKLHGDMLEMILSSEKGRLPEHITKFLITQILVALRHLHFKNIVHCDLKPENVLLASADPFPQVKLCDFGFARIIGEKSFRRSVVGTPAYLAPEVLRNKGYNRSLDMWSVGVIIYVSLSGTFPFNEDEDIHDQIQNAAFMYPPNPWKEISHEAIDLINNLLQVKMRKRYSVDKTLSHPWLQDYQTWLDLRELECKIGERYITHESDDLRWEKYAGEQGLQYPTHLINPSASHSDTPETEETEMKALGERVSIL
RGS16-Gao = RGS16-Galphao interaction regulator (human); O15492+P09471; bead-based flow cytometry RGS16-Galphao binding, fluorescence; actives lie on both sides; binding response (% of control), % at 10 µM; 0.38% of 220,000 active; AID 1441;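 active means below 25% or above 175%, edge rows of some plates excepted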;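 further: Galphao activated by GDP with aluminum fluoride before binding; 100% = wells without compound and 0% = beads without RGS; some results beyond the cut were filed as inactive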
Insulin prom inh = TRM-6 insulin promoter activity inhibition; TRM-6 cells (human fetal islet line), insulin promoter-eGFP reporter, imaging; reporter expression induced with tamoxifen; inhibition, % at 2 µM; 0.9% of 130,000 active;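 active means inhibition above the mean plus 3 SD, with well images judged a real hit on visual review, cut at about 60% in these data, passing the limit was not always enough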
GALR2 agonist = GALR2 (human) receptor agonism. O43603. GALR2-expressing cells, agonist activation read-out. activation, %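 (tested at 5 µM)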. 0.48% of 140,000 active. AID 803;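 active means above mean plus 3 SD of all compounds, about 5% in these data, not always enough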;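 further: 0% = vehicle buffer wells and 100% = reference agonist at full effect; tested in CHO reporter cells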
HSV replic up = increases HSV replication in cells | HSV replication augmentation in cells, fold increase | maximum fold increase | 0.005% of 220,000 active | AID 1956;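 active means peak rise of 1.5-fold or more in the series; tested in PC3 cells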;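 further: first round at 10 µM; read as green reporter fluorescence; hits show the peak of a series up to 25 µM; 1 = signal of infected wells without compound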
Insulin prom inh cell count = recorded beside Insulin prom inh, whose call it bears; normalized cell count, %; measured here: cell count, toxicity; reference of the scale not given here;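 cells exposed to compound for 48 h; stained nuclei by imaging scaled within each plate; lower means fewer cells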
HSV replic up primary fold = second read-out of HSV replic up, no call of its own (marks repeat the call); fold increase; compound at 10 µM; measured here: primary screen fold increase 10 uM; tested in PC3 cells;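 GFP signal in the first replicate; 1 = infected wells without compound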
Active calls of the source: *; i = inactive; · = not tested or not shown.

Results follow in this order: PKD1 inh	RGS16-Gao	Insulin prom inh	Insulin prom inh cell count	GALR2 agonist	HSV replic up	HSV replic up primary fold
1. CCc1ccc(N(C(=O)c2snc(C(N)=O)c2N)C(C(=O)NCCC(C)C)c2c[nH]c3ccccc23)cc1 (configuration not stated)
 : 0.3	62.0	0.0	86.3	0.1	i	0.9
2. CC1=C/C(=N\NC(=S)NCc2ccccc2)CC1
 : -0.9	97.0	·	·	·	i	1.15
3. Cc1ccc(NC(=O)c2cc(-c3ccco3)nc3ccccc23)cc1S(=O)(=O)N1CCOCC1
 : -9.3	93.9	·	·	·	i	1.07
4. S=C(NCc1ccco1)Nc1cccc(Cl)c1Cl
 : ·	98.8	·	·	·	i	0.99
5. C/C(=C\C(=O)O)CC(=O)O
 : 2.6	116.6	-18.9	124.6	-1.2	i	0.87
6. COc1ccc(-c2ccc(C#N)c(SCC(=O)Nc3sc4c(c3C#N)CCC4)n2)cc1OC
 : 0.6	107.3	-44.4	89.2	-0.8	i	1.1
7. COc1c(Br)cc(Br)cc1C(=O)O
 : 10.9	99.7	·	·	-0.7	i	0.98
8. COc1ccc(OC)c(NC(=O)Cn2c(=O)oc3ccccc32)c1
 : -15.7	100.5	·	·	-0.6	i	1.03
9. COc1ccc2cc(C(c3nnnn3C3CCCC3)N3CCc4ccccc4C3)c(=O)[nH]c2c1 (configuration not stated)
 : 10.1	107.0	·	·	1.0	i	0.77
10. COC(=O)c1ccc(C2C(C(=O)Nc3ccc(C)cc3C)=C(C)Nc3ncnn32)cc1 (configuration not stated)
 : -5.6	103.0	·	·	·	i	0.92
11. Cc1cc(N2CCN(C)CC2)nc2ccc(NC(=S)N3CCOCC3)cc12
 : -7.2	104.6	-40.5	75.2	·	i	0.88
12. Cc1cc(C=O)c(C)n1-c1ccc(N2CCOCC2)c([N+](=O)[O-])c1
 : -2.4	100.2	·	·	·	i	0.84
13. COc1ccc(CCCNC(=O)CC#N)cc1OC
 : -3.6	144.2	-27.3	97.9	-1.2	i	0.98
14. Cc1ccc(S(=O)(=O)N2CCCCC2)cc1NC(=O)Cc1c[nH]c2ccccc12
 : -3.5	103.5	·	·	-1.8	i	1.2
15. COc1ccc(CCn2c(C)cc(C(=O)CCl)c2C)cc1OC
 : -8.1	106.2	30.0	38.9	·	i	0.94
16. C/C(Cc1ccccc1)=N\NC(=O)CNC(=O)c1ccccc1Cl
 : ·	98.3	·	·	·	i	0.97
17. COC(=O)[C@@H]1C(c2c(OC)cc(OC)cc2OC)=NO[C@H]1C(=O)OC
 : -7.4	111.0	·	·	-0.2	i	1.11
18. CC1=C(C(=O)N2CCOCC2)C(c2ccccc2F)NC(=O)N1 (configuration not stated)
 : 2.7	100.3	·	·	·	i	0.93
19. COc1ccccc1CCc1nnc(CCC(=O)N(C)Cc2ccncc2C)o1
 : -13.2	108.3	-23.8	144.2	·	i	1.05
20. CCCc1cc(=O)c2ccc(OCC(C)=O)cc2o1
 : ·	102.5	·	·	·	i	1.2
21. C=CCn1c(N)c(C(=O)N2CCOCC2)sc1=S
 : 3.8	70.4	-4.5	129.3	-4.9	i	0.97
22. CN(CC(=O)Nc1ccc(Cl)cc1)S(=O)(=O)c1cccc2cccnc12
 : -2.0	92.6	·	·	-0.8	i	0.95
23. Cc1nnc(SCC(=O)NC2CCCc3ccccc32)n1-c1ccccc1 (configuration not stated)
 : -15.5	98.0	-61.1	106.7	-1.2	i	1.07
24. COC(=O)c1c(NC(=O)C(C)(C)C)csc1C
 : ·	101.6	·	·	·	i	1.17
25. CC(C)C(NC(=O)c1ccc(C(C)(C)C)cc1)C(=O)O (configuration not stated)
 : -6.2	104.3	29.4	146.8	-2.4	i	0.8
26. CC(C)(C)NC(=O)CN(Cc1ccc(F)cc1)C(=O)Cn1nnc(-c2ccc(F)cc2)n1
 : 3.0	105.3	·	·	·	i	0.87
27. CC(C)CNS(=O)(=O)c1ccc(CCC(=O)N2CCN(c3ccccc3)CC2)cc1
 : 1.3	100.2	·	·	·	i	0.99
28. COc1ccc(NS(=O)(=O)c2cc(NC(=O)c3nn(C)c(=O)c4ccccc34)ccc2OC)cc1
 : -3.3	103.6	·	·	·	i	1
29. CCN1C(=O)CC(NNC(=O)c2ccccc2)C1=O (configuration not stated)
 : ·	99.2	·	·	·	i	1.27
30. Nc1c(C(=O)NCCc2ccccc2)sc2nc(N3CCOCC3)c3c(c12)CCCC3
 : -2.2	100.4	·	·	·	i	1.03

Structural class: those above containing a tert-butyl group
Results follow in this order: PKD1 inh	RGS16-Gao	Insulin prom inh	Insulin prom inh cell count	GALR2 agonist	HSV replic up	HSV replic up primary fold
24. COC(=O)c1c(NC(=O)C(C)(C)C)csc1C
 : ·	101.6	·	·	·	i	1.17
25. CC(C)C(NC(=O)c1ccc(C(C)(C)C)cc1)C(=O)O (configuration not stated)
 : -6.2	104.3	29.4	146.8	-2.4	i	0.8
26. CC(C)(C)NC(=O)CN(Cc1ccc(F)cc1)C(=O)Cn1nnc(-c2ccc(F)cc2)n1
 : 3.0	105.3	·	·	·	i	0.87

Continued.
Results follow in this order: PKD1 inh	RGS16-Gao	Insulin prom inh	Insulin prom inh cell count	GALR2 agonist	HSV replic up	HSV replic up primary fold
31. CC1CCN(C(=O)CC2C(=O)Nc3c2c(=O)n(C)c(=O)n3Cc2ccccc2)CC1 (configuration not stated)
 : 2.3	130.4	-7.9	113.0	-2.4	i	1.07
32. O=[N+]([O-])c1cccnc1NCCc1ccccc1
 : 1.5	99.2	·	·	·	i	1.09
33. CCCCCCOC(=O)C(C#N)c1nc2ccccc2nc1N1CCOCC1 (configuration not stated)
 : -6.3	98.5	·	·	-0.8	i	1.01
34. COc1ccc(O)c(C(=O)c2cnc3onc(C(C)C)c3c2)c1
 : 0.0	102.5	28.6	129.9	-1.2	i	0.88
35. CCCOc1ccc(C(C(=O)OCCN(CC)CC)c2ccccc2)cc1 (configuration not stated)
 : 1.7	103.3	37.5	125.6	0.8	i	1.18
36. COc1ccc(C(=O)n2nc(-c3ccco3)nc2SC)cc1OC
 : 3.2	99.5	-168.8	77.2	-1.5	i	0.78
37. COc1ccc(C(=O)NC(=S)NCc2ccccc2)cc1
 : -7.3	98.8	2.9	59.0	-1.9	·	·
38. COc1ccc(-c2nc3c4c(ncn3n2)-c2ccccc2CC42CCCC2)cc1
 : 4.0	107.6	·	·	-0.8	i	0.9
39. CN(C)N=Nc1ccc(S(=O)(=O)N2CCSC2C(=O)O)cc1 (configuration not stated)
 : -2.8	·	47.6	138.1	-1.1	i	1.12
40. Cc1ccc(NC(=O)CS(=O)CC(=O)Nc2ccc(N3CCOCC3)cc2)cc1Cl (configuration not stated)
 : 8.8	94.2	·	·	-1.6	i	0.98

Sorted by length of the SMILES (rising): some entries from above
Results follow in this order: PKD1 inh	RGS16-Gao	Insulin prom inh	Insulin prom inh cell count	GALR2 agonist	HSV replic up	HSV replic up primary fold
16. C/C(Cc1ccccc1)=N\NC(=O)CNC(=O)c1ccccc1Cl
 : ·	98.3	·	·	·	i	0.97
30. Nc1c(C(=O)NCCc2ccccc2)sc2nc(N3CCOCC3)c3c(c12)CCCC3
 : -2.2	100.4	·	·	·	i	1.03
17. COC(=O)[C@@H]1C(c2c(OC)cc(OC)cc2OC)=NO[C@H]1C(=O)OC
 : -7.4	111.0	·	·	-0.2	i	1.11

More results
Results follow in this order: PKD1 inh	RGS16-Gao	Insulin prom inh	Insulin prom inh cell count	GALR2 agonist	HSV replic up	HSV replic up primary fold
41. CCOC(=O)c1c(-c2ccc(C)o2)csc1NC(=S)NC(=O)c1cccs1
 : -18.4	91.7	13.8	67.8	-1.9	i	1.03
42. NC(=O)CSc1nnc(-c2ccc(S(=O)(=O)N3CCCC3)cc2)o1
 : -2.8	111.0	42.9	49.4	-1.5	i	0.87
43. COc1ccc(NS(=O)(=O)c2ccc(C)c(NC(=O)c3ccc(C)c(S(=O)(=O)N4CCOCC4)c3)c2)cc1
 : 3.8	74.0	·	·	-1.9	i	0.9
44. Cc1nn(-c2ccccc2)c(N2CCCC2)c1/C=C1\N=C(c2ccc(OC(C)C)cc2)OC1=O
 : 0.3	105.8	·	·	-1.5	i	0.95
45. Cc1ccc(S(=O)(=O)CCc2nnc(N)s2)cc1C
 : -3.8	·	-276.2	74.0	-1.3	i	1.18
46. COC(=O)[C@H](Cc1ccccc1)NC(=O)O[C@@H]1C(=O)c2cc(Br)ccc2O[C@H]1c1cccc(OC)c1
 : -5.4	103.4	14.3	83.9	-3.0	·	·
47. Cc1ccc(NC(C(N)=O)c2c(C)[nH]c(=O)[nH]c2=O)cc1 (configuration not stated)
 : -8.7	101.7	-13.3	99.4	-0.5	i	1.01
48. Cc1ccc(C)c(NC(=O)c2cc3ccccn3n2)c1
 : -2.8	102.2	·	·	-3.0	i	0.84
49. CCOC(=O)CN(C(=O)CCC(=O)Nc1cc(C)on1)C(C(=O)NC1CCCC1)c1cccnc1 (configuration not stated)
 : -5.4	101.7	11.4	203.0	-1.4	i	0.91
50. Cc1ccc(COc2ccc(C)nc2[N+](=O)[O-])cc1
 : ·	99.1	·	·	·	i	0.9
51. N#CC1=C(N)OC2=C(CC/C2=C\c2ccccc2)C1c1ccccc1 (configuration not stated)
 : 4.2	100.9	22.6	54.1	3.6	·	·
52. CC(C)Sc1nc(O)c(Cc2ccccc2)c(=O)[nH]1
 : -0.3	103.1	3.3	126.4	-1.1	i	1
53. O=C(NC1CC1)C1=C[C@H](c2c[nH]c3ccccc23)C[C@H](OCc2ccc(CO)cc2)O1
 : ·	107.4	·	·	·	i	0.855
54. COc1ccc(C2(CNC(C)=O)CCOCC2)cc1OC
 : 6.8	100.8	·	·	-1.2	i	1.02
55. CCn1cc(C=O)c2cc(S(=O)(=O)N3CCOCC3)ccc21
 : -9.1	68.1	21.4	102.2	-0.5	i	0.99
56. Cc1nnc2sc(SCc3cccc(Cl)c3)nn2c1=O
 : -3.3	97.3	16.7	161.8	·	i	0.94
57. Cc1ccc2cc(C)c3nnc(SCC(=O)c4cccs4)n3c2c1C
 : 3.0	97.9	3.3	117.9	0.0	i	0.94
58. Cc1cc(NC(=O)c2cccc(C(=O)Nc3cc(C)on3)n2)no1
 : 4.1	97.6	36.8	69.2	-1.6	i	0.89
59. CCCCn1c(=O)[nH]c(=O)c2c1nc(-c1ccc(C(F)(F)F)cc1)n2C
 : -4.4	102.8	53.3	62.7	·	i	0.9
60. CCOc1ccc(C(C(=O)NC2CCCCC2)N(C(=O)c2ccco2)c2ccc(-n3cnnn3)c(C)c2)cc1 (configuration not stated)
 : -10.6	62.3	-174.4	81.9	-0.3	i	0.77
61. O=C(Nc1ccc2c(c1)OCO2)N1CCN(c2ncccn2)CC1
 : -2.9	97.5	63.6	85.7	-5.8	i	1.1
62. Cc1ccc(C(=O)CC(C(=O)O)P(=O)(c2ccccc2)c2ccccc2)cc1 (configuration not stated)
 : -2.2	110.1	50.0	35.8	·	i	1.04
63. Cc1ccc(-c2nc3ncccc3o2)cc1NC(=S)NC(=O)c1ccco1
 : -1.7	98.9	·	·	·	i	0.97
64. Cc1cc(NC(=O)CN(C)CCOc2ccccc2)ccc1Br
 : -10.2	101.4	·	·	·	i	0.94
65. CCN(CC)c1ccc(NC(=O)/C=C/c2cc(Br)ccc2OC)cc1
 : -3.6	96.2	-23.3	99.8	-4.0	·	·
66. C#CCOC(=O)CCCC(=O)Nc1ccccc1OC
 : 0.7	98.1	25.9	92.1	-2.5	i	0.76
67. N#CC1=C(N)N(c2ncn[nH]2)C2=C(C(=O)CCC2)C1c1ccccc1 (configuration not stated)
 : -0.7	112.7	38.1	154.5	·	i	0.97
68. Cc1cc(C(=O)Nc2ccccc2N2CCOCC2)c(C)o1
 : ·	92.3	·	·	·	i	1.2
69. Nc1[nH]n2c(=O)c3c(nc2c1N=Nc1ccc(Cl)cc1)CCCC3
 : 5.5	95.8	-10.0	113.9	-0.9	i	0.76
70. OCc1nnc2c3ccccc3c(-c3ccccc3)nn12
 : -1.1	96.0	58.6	37.2	-0.7	i	0.89
71. O=C(Nc1cccc(C(=O)O)c1)/C(=C\c1ccc2c(c1)OCO2)NC(=O)c1ccc(Br)o1
 : -1.2	52.2	46.7	78.8	·	i	1.06

Screens deposited in PubChem by several laboratories.
